MLL AF4-AF9 inh – blocks AF4 peptide binding to human AF9. P42568. AlphaScreen, biotin-AF4 peptide binding to FLAG-AF9. inhibition, % at 10 µM. hit rate 0.47% among 350,000;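 active means every replicate reaching a set inhibition limit, whatever the replicate mean, cut at about 25% in these data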;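 further: 0% = plate neutral control median and 100% = total signal loss; the record names both 10 and 1 µM as test concentration; the first replicate is given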
Target sequence (P42568 whole entry, looked up): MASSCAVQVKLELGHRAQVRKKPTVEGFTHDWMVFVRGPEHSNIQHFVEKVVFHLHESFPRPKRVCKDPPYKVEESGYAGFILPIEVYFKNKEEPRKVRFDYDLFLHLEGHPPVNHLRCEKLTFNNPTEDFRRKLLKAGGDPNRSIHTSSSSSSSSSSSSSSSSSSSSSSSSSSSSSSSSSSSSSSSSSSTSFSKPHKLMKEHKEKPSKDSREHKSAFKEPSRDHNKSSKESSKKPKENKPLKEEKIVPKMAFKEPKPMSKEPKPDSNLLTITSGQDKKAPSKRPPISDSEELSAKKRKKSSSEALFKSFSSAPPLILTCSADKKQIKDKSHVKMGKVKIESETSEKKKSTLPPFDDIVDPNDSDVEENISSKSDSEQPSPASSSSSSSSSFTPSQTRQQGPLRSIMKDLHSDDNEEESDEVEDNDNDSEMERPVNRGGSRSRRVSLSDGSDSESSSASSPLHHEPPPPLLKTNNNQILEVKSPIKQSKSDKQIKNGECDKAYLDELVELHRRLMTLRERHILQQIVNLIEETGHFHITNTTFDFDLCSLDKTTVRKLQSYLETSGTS
Ecoli rRNA inh – inhibits bacterial ribosomal RNA function over humanized ribosomes; E. coli WT GFP vs humanized-ribosome RFP mutants, fluorescence, 24 h; hits give low values; DMSO median 0, no signal -100; GFP signal change (wild-type ribosome), % (concentration not given with the values); hit rate 1.6% among 350,000;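 active means significant combined selectivity score with lowered wild-type GFP, culture density cut under 30%, mutant RFP and density less affected; inactive means any of these conditions unmet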; further: one replicate is shown; some compounds called inactive have numbers as strong as hits
FGF22 binding – shifts melting point of recombinant human FGF22. Q9HCT0. recombinant FGF22 thermal shift, SYPRO orange fluorescence; percent of sucrose octasulfate shift, DMSO zero. calls only at 9.99 µM. hit rate 1.5% among 340,000. AID 651658;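 active means melting point raised past a set limit in the mean and every replicate; three in four hits are not shown here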
Target sequence (Q9HCT0 whole entry, looked up): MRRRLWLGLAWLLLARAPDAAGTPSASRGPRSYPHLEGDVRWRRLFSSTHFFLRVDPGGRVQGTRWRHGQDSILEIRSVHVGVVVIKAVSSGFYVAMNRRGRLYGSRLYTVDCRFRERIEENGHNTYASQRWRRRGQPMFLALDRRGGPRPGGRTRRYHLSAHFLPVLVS
Ecoli rRNA inh OD600 – further read-out of Ecoli rRNA inh, marked with its call; OD600 change, %; measured here: OD600 growth;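 optical density of the mix in the first replicate; 0 = DMSO median and -100 = no signal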
Ecoli rRNA inh RFP – further read-out of Ecoli rRNA inh, marked with its call; RFP signal change, %; measured here: RFP humanized mutant strains;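 first replicate; 0 = DMSO median and -100 = no signal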
* = called active by the depositor; i = inactive; & = joins results of further samples.

MLL AF4-AF9 inh,Ecoli rRNA inh,Ecoli rRNA inh OD600,Ecoli rRNA inh RFP,canonical_smiles,FGF22 binding
0.6,2,-4,-1.9,COc1ccc(S(=O)(=O)N(C)C[C@H]2Oc3cc(C4=CCCC4)ccc3S(=O)(=O)N([C@H](C)CO)C[C@@H]2C)cc1,i
0.8,-1,4,-1.6,C(=NNC1=NCCN1)c1ccnc2ccccc12,i
1.0&-0.5,-2&-1,-1&7,-1.4&-1.8,CCOC(=O)CCCCCC(=O)Nc1ccc2c(c1)C(=O)N([C@@H](C)CO)C[C@H](C)[C@H](CN(C)C(=O)NC(C)C)OCCCC[C@H](C)O2,i
-3.0,-3,-6,-3.0,CN(C)CCCNC(=O)C[C@@H]1CC[C@@H]2[C@H](COC[C@@H](O)CN2C(=O)c2ccncc2)O1,i
-0.1,4,8,-0.1,CCOC(=O)C1C(C(=O)OCC)C(C)(C)C1N(C)C (centres undefined),i
-0.6,3,2,-1.3,C[C@H]1CN([C@@H](C)CO)C(=O)Cc2cc(NC(=O)c3ccncc3)ccc2O[C@@H]1CN(C)C(=O)Nc1ccccc1,i
0.4,3,-3,24,O=C(C[C@H]1CC[C@@H]2[C@H](COC[C@@H](O)CN2C(=O)c2ccccc2F)O1)NCc1ccc(Cl)c(Cl)c1,i
-0.7,1,-2,-2.0,O=C(C[C@@H]1C=C[C@H](NS(=O)(=O)c2ccc(F)cc2)[C@H](CO)O1)NCCc1ccncc1,i
7.1,-9,-28,16,O=C(NCC[C@H]1CC[C@@H](NS(=O)(=O)c2ccc(F)cc2)[C@@H](CO)O1)Nc1ccc(Cl)cc1,i
3.0,2,5,-3.9,CN1CCN(C(=O)C[C@H]2C[C@@H]3c4cc(NC(=O)Nc5ccc(F)cc5)ccc4O[C@@H]3[C@@H](CO)O2)CC1,i

(more compounds)
MLL AF4-AF9 inh,Ecoli rRNA inh,Ecoli rRNA inh OD600,Ecoli rRNA inh RFP,canonical_smiles,FGF22 binding
-0.6,-1,0,-0.9,CCC(=O)Nc1ccc2c(c1)OC[C@H](C)N(C(=O)CN1CCOCC1)C[C@@H](C)[C@@H](OC)CN(C)C2=O,i
12,-13,-32,18,OC[C@@H]1CN(Cc2ccc(-c3ccccc3)cc2)C[C@H](n2cnc3c(NC4CCC4)ncnc32)O1,i
7.5,-3,-5,9.2,COc1ccc(NC(=O)Nc2ccc3c(c2)C(=O)N([C@@H](C)CO)C[C@@H](C)[C@@H](CN(C)Cc2ccncc2)OCCCC[C@@H](C)O3)cc1,i
1.9,2,16,-3.4,O=S1(=O)CCN(Cc2ccccc2)CC1,i
0.2,1,-1,0.1,CCC(=O)Nc1ccc2c(c1)OC[C@H](C)N(Cc1ccccc1OC)C[C@H](C)[C@H](OC)CN(C)C2=O,i
1.8,0,2,-0.2,O=C(Nc1ccc2c(c1)[C@H]1C[C@@H](CC(=O)N3CCCCC3)O[C@@H](CO)[C@H]1O2)C1CCC1,i
2.8,-10,-36,7.1,COC(=O)C[C@@H]1C[C@H]2c3cc(NC(=O)Nc4ccc(C(F)(F)F)cc4)ccc3O[C@H]2[C@@H](CO)O1,i
-2.9,-12,2,-1.9,COc1ccc(S(=O)(=O)N2CC[C@@H]3[C@@H](CO)Nc4ccc(-c5cccc(C#N)c5)cc4[C@@H]32)cc1,i
1.6,-3,-4,-0.1,C[C@@H]1CN([C@H](C)CO)C(=O)c2cc(NC(=O)C3CCCCC3)ccc2O[C@H]1CN(C)C(=O)Nc1ccc(F)cc1,i
11,-37,-70,5.3,C[C@H](CO)N1C[C@H](C)[C@H](CN(C)Cc2ccc3c(c2)OCO3)Oc2ncc(-c3cccc(C(F)(F)F)c3)cc2C1=O,i

More compounds
MLL AF4-AF9 inh,Ecoli rRNA inh,Ecoli rRNA inh OD600,Ecoli rRNA inh RFP,canonical_smiles,FGF22 binding
-2.0,0,5,0.5,O=C(CC1CC1)N1CC2(C1)[C@H](c1ccccc1)[C@@H](CO)N2C(=O)c1ccccn1,i
4.5,-15,-10,5.3,COc1ccc(S(=O)(=O)Nc2ccc3c(c2)C(=O)N([C@H](C)CO)C[C@@H](C)[C@H](CN(C)C(=O)c2ccccc2)OCCCC[C@@H](C)O3)cc1,i
-1.3,4,2,3.1,C[C@@H]1CCCCO[C@@H](CN(C)C(=O)Nc2ccc(F)cc2)[C@H](C)CN([C@H](C)CO)C(=O)c2cc(NC(=O)Cc3ccccc3)ccc2O1,i
-1.5,9,8,-3.5,C[C@H]1Cn2cnc(C(=O)NCC(=O)OC(C)(C)C)c2C(=O)N1,i
5.9,-36,-57,26,O=C(Nc1cccc(F)c1)N1CCCCN2[C@@H](CO)[C@H](c3ccc(C#Cc4cccnc4)cc3)[C@@H]2C1,i
3.4,30,18,18,CC(C)C[C@@H](CN1CCC[C@@H]1CN1C(=S)NC[C@@H]1Cc1ccccc1)N1C[C@H](Cc2ccc(O)cc2)N(CC2CCCCCC2)C1=S,i
-0.3,-14,-8,20,Cc1ccccc1-c1ccc(CN2C(C)C(=O)N(Cc3cn(Cc4ccco4)nn3)CCS2(=O)=O)cc1 (centres undefined),i
-0.6,-4,0,0.1,COc1cccc(S(=O)(=O)N[C@H]2C=C[C@H](CC(=O)NC3Cc4ccccc4C3)O[C@@H]2CO)c1,i
-0.9,-3,1,-2.2,CO[C@@H]1CN(C)C(=O)c2cc(NC(=O)C3CCC3)ccc2OC[C@@H](C)N(C(=O)c2ccccc2)C[C@H]1C,i
8.8,-52*,-39*,-12*,C[C@H](O)[C@@H]1CN2CCc3c([nH]c4ccc(-c5ccc6c(c5)OCO6)cc34)[C@@H]2C[C@@H]1N(C)C(=O)NC1CCCCC1,i

Further records follow:
MLL AF4-AF9 inh,Ecoli rRNA inh,Ecoli rRNA inh OD600,Ecoli rRNA inh RFP,canonical_smiles,FGF22 binding
-4.6,-3,8,8.9,Cc1ccc(S(=O)(=O)N2CC3(O)CN(C(=O)OC(C)C)N(C(=O)OC(C)C)CC3(OC(=O)Nc3c(C)noc3C)C2)cc1 (centres undefined),i
2.1,9,-12,0.3,O=C(CC1c2ccccc2C=C(c2ccsc2)N1c1ccc(-c2cccnc2)cc1)C1CC1 (centres undefined),i
-1.6,2,4,-1.3,COc1ccc(NC(=O)Nc2ccc3c(c2)C(=O)N([C@H](C)CO)C[C@@H](C)[C@H](CN(C)S(C)(=O)=O)OCCCC[C@H](C)O3)cc1,i
8.6,1,11,-3.3,CCCC#Cc1cnc2c(c1)C(=O)N([C@H](C)CO)C[C@@H](C)[C@H](CN(C)Cc1ccc3c(c1)OCO3)O2,i
4.6,3,8,0.2,C[C@@H]1CN([C@@H](C)CO)C(=O)c2cccc(NC(=O)Nc3ccc(C(F)(F)F)cc3)c2O[C@H]1CN(C)Cc1ccc(-c2ccccc2)cc1,i
8.1,3,0,0.6,C[C@@H]1CN([C@@H](C)CO)C(=O)c2cc(C#Cc3ccccc3)cnc2O[C@@H]1CN(C)C(=O)CN(C)C,i
-1.3,2,1,-3.4,CCCCN(C)C(=O)c1sc(=O)n(CC(=O)c2ccccc2OC)c1C,i
-3.5,4,-1,0.5,C[C@@H]1CN([C@@H](C)CO)S(=O)(=O)c2ccc(C#Cc3cccnc3)cc2O[C@H]1CN(C)C(=O)CN(C)C,i
-0.8&-5.1,1&4,4&6,-1.5&-0.5,C[C@H](CO)N1C[C@H](C)[C@@H](CN(C)C(=O)Nc2ccc3c(c2)OCCO3)OCc2cn(nn2)CCCC1=O,i
2.9&-1.4&0.6,6&0,10&0,2.9&1.4,COc1cccc(S(=O)(=O)N(C)C[C@@H]2Oc3ncc(C#CCN(C)C)cc3C(=O)N([C@H](C)CO)C[C@H]2C)c1,i

Single records, as listed above.
CC(C)C[C@@H](CN1CCC[C@@H]1CN1C(=S)NC[C@@H]1Cc1ccccc1)N1C[C@H](Cc2ccc(O)cc2)N(CC2CCCCCC2)C1=S is entered as MLL AF4-AF9 inh: 3.4; Ecoli rRNA inh: 30; Ecoli rRNA inh OD600: 18; Ecoli rRNA inh RFP: 18; FGF22 binding: i
O=C(Nc1cccc(F)c1)N1CCCCN2[C@@H](CO)[C@H](c3ccc(C#Cc4cccnc4)cc3)[C@@H]2C1 is entered as MLL AF4-AF9 inh: 5.9; Ecoli rRNA inh: -36; Ecoli rRNA inh OD600: -57; Ecoli rRNA inh RFP: 26; FGF22 binding: i
C[C@@H]1CN([C@@H](C)CO)S(=O)(=O)c2ccc(C#Cc3cccnc3)cc2O[C@H]1CN(C)C(=O)CN(C)C is entered as MLL AF4-AF9 inh: -3.5; Ecoli rRNA inh: 4; Ecoli rRNA inh OD600: -1; Ecoli rRNA inh RFP: 0.5; FGF22 binding: i

Remaining list, next part.
MLL AF4-AF9 inh,Ecoli rRNA inh,Ecoli rRNA inh OD600,Ecoli rRNA inh RFP,canonical_smiles,FGF22 binding
0.1,12,21,0.5,O=C(C=Cc1ccccc1)NCCNC(=O)C=Cc1ccccc1,i
-5.2,-8,-5,4.1,CCCCCCCCN1C(=O)[C@H](CC(=O)N2CCCCC2)C[C@@]2(C(=O)OC)CCCCC=C12,i
-5.1,-18,-13,-0.4,O=C(Cn1cc(COC(=O)c2c3ccccc3cc3ccccc23)nn1)c1ccc(O)cc1,i
-0.7,-3,5,-0.9,C[C@@H]1CN([C@@H](C)CO)C(=O)c2cc(C#CC3CC3)cnc2O[C@@H]1CN(C)C(=O)Nc1ccccc1,i
2.0,3,7,-2.8,C[C@@H]1CN([C@H](C)CO)S(=O)(=O)c2ccc(-c3cncnc3)cc2O[C@H]1CN(C)C(=O)C1CCC1,i
-2.0,7,8,-2.6,C[C@@H]1CN([C@@H](C)CO)C(=O)c2cccc(NC(=O)C3CC3)c2O[C@@H]1CN(C)Cc1ccc2c(c1)OCO2,i
0.3,1,10,-1.7,O=C(C[C@H]1CC[C@@H]2[C@H](COC[C@H](O)CN2S(=O)(=O)c2ccc(F)cc2)O1)NCCN1CCCCC1,i
-5.1,12,10,3.4,O=C(NCc1ccccc1)[C@@H]1CCCN1C(=O)[C@H]1CCCN1C(=O)c1ccccc1Cl,i
0.1,-2,1,-2.2,CN1CCN(C(=O)C[C@H]2CC[C@H]3[C@@H](COc4ccc(NC(=O)c5ccc(F)c(F)c5)cc4C(=O)N3C)O2)CC1,i
2.5,0,-11,1.9,COc1ccc(CN2C[C@@H](C)[C@H](OC)CN(C)C(=O)c3ccc(NC(=O)C4CC4)cc3OC[C@H]2C)cc1,i

Additional structures follow.
MLL AF4-AF9 inh,Ecoli rRNA inh,Ecoli rRNA inh OD600,Ecoli rRNA inh RFP,canonical_smiles,FGF22 binding
0.8,-7,-6,1.0,O=C(Cc1ccccc1)N1C[C@@H]2[C@H](c3ccccc31)[C@H](CO)N2C(=O)Nc1ccc(F)cc1,i
-8.0,11,5,0.3,O=C(COC(=O)C1COc2ccccc2O1)c1ccc(F)cc1 (centres undefined),i
-1.1,15,15,-1.4,O=C(NCCc1ccccc1)c1ccc(NC(=O)C2CCCC2)cc1,i
-5.1,0,-21,0.1,CC1(C(=O)Nc2ccc3c(c2)OCCO3)CCN1C(=O)Cc1cc(F)ccc1F (centres undefined),i
-4.1,-1,-3,-1.2,C[C@H](CO)N1C[C@H](C)[C@H](CN(C)C(=O)NC2CCCCC2)Oc2ccc(NC(=O)CCC(F)(F)F)cc2C1=O,i
9.2,2,3,1.8,C[C@@H]1CCCCO[C@@H](CN(C)Cc2ccc(C(F)(F)F)cc2)[C@@H](C)CN([C@@H](C)CO)C(=O)c2cc(NC(=O)CCCN(C)C)ccc2O1,i
-0.8,0,8,-2.1,CN(C)C(=O)c1ccc(-c2ccc3c(c2)[C@@H]2[C@@H](CCN2C(=O)C2CCOCC2)[C@@H](CO)N3C)cc1,i
1.3,-5,4,-3.3,Cc1ccc(-c2ccc(CN3C(CC(C)C)C(=O)N(Cc4cn(Cc5ccco5)nn4)CCS3(=O)=O)cc2)cc1 (centres undefined),i
2.6,-3,-13,1.9,O=C(C[C@@H]1C[C@@H]2c3cc(NC(=O)Nc4ccccc4)ccc3O[C@@H]2[C@@H](CO)O1)NCc1ccccc1,i
-2.5,1,2,-0.2,C/C=C/c1ccc([C@H]2[C@@H](CO)N(C(=O)NC3CCCC3)[C@H]2C#N)cc1,i
0.5,9,9,0.1,C[C@H](CO)N1C[C@H](C)[C@H](CN(C)C(=O)Nc2ccc3c(c2)OCO3)Oc2ncc(C#CCN(C)C)cc2C1=O,i
1.5,3,8,-1.3,CO[C@H]1CN(C)C(=O)c2ccc(NC(C)=O)cc2OC[C@@H](C)N(C(=O)c2ccccn2)C[C@@H]1C,i
-1.4,3,7,-3.5,CO[C@@H]1CN(C)C(=O)c2cc(NC(=O)c3ccc(F)cc3)ccc2OC[C@@H](C)N(C(C)=O)C[C@H]1C,i

Only part of the results is shown, so the mix of outcomes need not match the whole.
